Screens from PubChem.
HPGD inh – blocks human HPGD enzyme activity; purified HPGD, NADH fluorescence kinetic, PGE2 substrate; 150,000 tested, 4.3% active; AID 894; Potency, µM, inactives show at the highest dose activity change, negative = inhibition, actives largely listed as inhibitors; active = well fitted inhibition curve with a large enough effect (not every such curve was filed as active); inconclusive = small, poorly fitted or top-dose-only effect, or another doubt; inactive = no such curve, though single readings can be large or run the other way;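 note: top concentration of the series not given in the record; plate controls included wells without enzyme; inactives centre near -10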
Target sequence (P15428 whole entry, looked up): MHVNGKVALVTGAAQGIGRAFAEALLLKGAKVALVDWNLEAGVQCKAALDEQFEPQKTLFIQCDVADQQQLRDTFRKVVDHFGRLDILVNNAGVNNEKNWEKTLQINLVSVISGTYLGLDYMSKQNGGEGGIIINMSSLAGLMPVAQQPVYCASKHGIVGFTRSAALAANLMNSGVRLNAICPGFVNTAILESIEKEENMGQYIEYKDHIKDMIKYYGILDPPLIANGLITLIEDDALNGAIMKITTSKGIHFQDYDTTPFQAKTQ
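NADH formation kinetics: reaction with 30 uM PGE2 and 1 mM NAD+ (final), 20 nM enzyme, Tris-HCl pH 8 with Tween 20, after 15 min compound preincubation at room temperature. Fluorescence change, last versus first of five reads.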
The depositor's hits bear a star; ? = inconclusive. % is set by controls: 0 for no effect and ±100 for the full control effect; potency is the fitted concentration of half-maximal effect.

HPGD inh	canonical_smiles
?	COc1ccc2c(c1OC)C(Cc1ccccc1)N1CCc3cc4c(cc3C1C2)OCO4 (centres undefined)
?	CCCCCC(=O)N/N=C/c1cc(Br)c(O)c(OC)c1
-4%	CCOC(=O)Nc1nc(C)c(C(=O)N(C)C)s1
0%	COc1ccc(C(=O)OC2CC3CC[C@H](C2)N3C(C)=O)cc1OC (some centres undefined)
?	N#CCCn1c(=O)c(-c2cccs2)nc2cnc(Oc3cccc(Cl)c3)nc21
-1%	O=C(CN1C(=O)C2C3C=CC(C3)C2C1=O)Nc1ccc2c(c1)OCCO2 (centres undefined)
-8%	CCOC(=O)CNC(=O)CN1C(=O)CCS(=O)(=O)c2ccccc21
?	CCCNC(=O)C/C(C)=N/NC(=O)COc1ccc(C)cc1Br
-16%	COc1cccc2c(=O)n(CC(=O)N3CCc4ccccc43)ccc12
-17%	Cc1ccc(NC(NC(=O)Cc2ccccc2)C(Cl)(Cl)Cl)cc1 (centres undefined)
1%	O=C(Nc1cc(S(=O)(=O)N2CCCC2)ccc1Cl)C1=COCCO1
1%	CC(C)(C)C(=O)CC1(O)C(=O)N(Cc2ccccc2)c2ccccc21 (centres undefined)
?	Cc1ccc2oc(-c3ccc(NC(=O)c4ccc5c(c4)OCO5)cc3)nc2c1
1%	CCC(C)n1nnc2c(=O)oc3ccccc3c21 (centres undefined)
-1%	Cc1ccc(Nc2nnc(SC3CCOC3=O)s2)cc1 (centres undefined)
-3%	O=C(O)C[C@H](Cc1ccc2c(c1)OCO2)C(=O)O
-9%	O=C(CCN1C(=O)/C(=C\c2cccs2)SC1=S)NC1=NCCS1
2%	CCOc1ccc(N(CC(=O)NC2CCCC(C)C2C)S(=O)(=O)c2c(C)noc2C)cc1 (centres undefined)
-15%	COc1ccc(S(=O)(=O)Nc2nnc(C(C)C)s2)cc1
-16%	COC(CNC(=O)C1CC(=O)N(CCc2ccccc2)C1)OC (centres undefined)
?	CCOC(=O)COc1ccc2cc(C(=O)OCC)c(=O)oc2c1
-8%	O=C(NCN1CCN(c2ccccn2)CC1)c1cnccn1
?	CC1(C)CC(=O)c2sc(NC(=O)c3ccc4ncsc4c3)nc2C1
-16%	CCN(CC)S(=O)(=O)c1ccc(OCC(=O)NCc2ccccc2)cc1
0.35µM*	COc1ccc(OC)c(-n2nnnc2SCC(=O)Nc2ccc(C(=O)N3CCCCC3)cc2)c1
-9%	COc1ccccc1CNC(=O)C/C(C)=N/NC(=O)Cc1ccccc1
-10%	Cc1cc[n+](CC(=O)c2cccs2)cc1
?	Cc1ccc(C(=O)CSc2ncn[nH]2)cc1
-3%	CSC1=NCCN1C(=O)C(C)Oc1ccccc1 (centres undefined)
-2%	Cc1nc(N)sc1-c1nnc(SCC(=O)Nc2nccs2)n1C
13µM*	CCOc1cc(/C=C2\SC(=N)N(c3nonc3N)C2=O)ccc1OCC(N)=O
-3%	O=C1CSC(c2cn(-c3ccccc3)nc2-c2cccs2)N1CC1CCCO1 (centres undefined)

Part of the list above, as tab-separated lines.
structure	HPGD inh
COc1ccc2c(c1OC)C(Cc1ccccc1)N1CCc3cc4c(cc3C1C2)OCO4 (centres undefined)	?
CCCCCC(=O)N/N=C/c1cc(Br)c(O)c(OC)c1	?
CCOC(=O)Nc1nc(C)c(C(=O)N(C)C)s1	-4%
COc1ccc(C(=O)OC2CC3CC[C@H](C2)N3C(C)=O)cc1OC (some centres undefined)	0%
N#CCCn1c(=O)c(-c2cccs2)nc2cnc(Oc3cccc(Cl)c3)nc21	?
O=C(CN1C(=O)C2C3C=CC(C3)C2C1=O)Nc1ccc2c(c1)OCCO2 (centres undefined)	-1%
CCOC(=O)CNC(=O)CN1C(=O)CCS(=O)(=O)c2ccccc21	-8%
CCCNC(=O)C/C(C)=N/NC(=O)COc1ccc(C)cc1Br	?
COc1cccc2c(=O)n(CC(=O)N3CCc4ccccc43)ccc12	-16%
Cc1ccc(NC(NC(=O)Cc2ccccc2)C(Cl)(Cl)Cl)cc1 (centres undefined)	-17%
O=C(Nc1cc(S(=O)(=O)N2CCCC2)ccc1Cl)C1=COCCO1	1%
CC(C)(C)C(=O)CC1(O)C(=O)N(Cc2ccccc2)c2ccccc21 (centres undefined)	1%
Cc1ccc2oc(-c3ccc(NC(=O)c4ccc5c(c4)OCO5)cc3)nc2c1	?
CCC(C)n1nnc2c(=O)oc3ccccc3c21 (centres undefined)	1%
Cc1ccc(Nc2nnc(SC3CCOC3=O)s2)cc1 (centres undefined)	-1%
O=C(O)C[C@H](Cc1ccc2c(c1)OCO2)C(=O)O	-3%

More entries follow.
HPGD inh	canonical_smiles
-29%	CCOC(=O)c1c(NC(=O)c2cccc(N3C(=O)CCC3=O)c2)sc(C)c1C
-22%	O=C(N/N=C/c1ccccn1)c1cc(-c2cccc3ccccc23)n[nH]1
-16%	Cc1nc2sc(C(c3ccccc3)N3CCOCC3)c(O)n2n1 (centres undefined)
-21%	O=C1/C(=C\c2ccco2)SC(=S)N1Cc1ccccc1
-18%	CC(C)NC(=S)N/N=C/c1ccc2c(c1)OCCO2
-13%	Cc1ccccc1C(=O)Nc1ccccc1C(=O)NCc1ccccc1
?	Cn1c(=O)c2c(nc(N/N=C/c3ccc(OC(=O)c4ccco4)cc3)n2Cc2ccc(F)cc2)n(C)c1=O
?	Cc1nc(N2CCN(Cc3ccccc3)CC2)c(C#N)c2c1COC(C)(C)C2
-8%	COc1ccc2[nH]cc(CCNc3cc(-c4ccccc4C(F)(F)F)ncn3)c2c1
?	COc1ccc(-c2nc(C#N)c(NCCc3ccccc3)o2)cc1
-12%	CN1/C(=C\C=N\NC(=O)c2ccc(O)cc2)C(C)(C)c2ccccc21
-9%	Cc1ccc(S(=O)(=O)N2CCN(C(=O)c3cc4c(C)nn(-c5ccccc5)c4s3)CC2)cc1
0.5µM*	O=C(c1ccc(N2C(=O)C3CC=C(Cl)CC3C2=O)cc1)N1CCCCC1 (centres undefined)
-14%	Cc1nn(CC(=O)Nc2ccc(Cl)cn2)c(C)c1[N+](=O)[O-]
-11%	CCOc1ccccc1-c1nc(-c2ccncc2)no1
-13%	COC(=O)c1ccc(NC(=O)C23CC4CC(C2)CC(n2cncn2)(C4)C3)cc1
28µM*	Cc1ccccc1NC(=S)NCc1ccccc1
-11%	COc1ccc(CCn2c(N3CCN(Cc4ccccc4)CC3)nc3c2c(=O)[nH]c(=O)n3C)cc1
-6%	CC(c1nnc(SCC(=O)Nc2sccc2C#N)n1-c1ccc(Cl)cc1)N(C)C (centres undefined)
-6%	Cc1ccc(N2C(=O)C3C(C2=O)C2C=CC3C23CC3)cc1 (centres undefined)
?	Cc1cc(N)n2ncc(-c3ccccc3)c2n1
-28%	COc1ccc(C(=O)N/C(=C\c2cccs2)c2nc3ccccc3[nH]2)cc1OC
-8%	O=C(Nc1ccc(Cl)cc1)N1CCSCC1
-5%	COC(=O)[C@@]1(Cc2ccc(OC)cc2)[C@H]2c3cc(C(=O)N(C)C)n(Cc4ccc(C(F)(F)F)nc4)c3C[C@H]2CN1C(=O)c1ccccc1
-14%	CCN1CC2=C(OC(N)=C(C#N)C2c2cccs2)/C(=C/c2cccs2)C1 (centres undefined)
?	CC(=O)Nc1ccc(Nc2cc(C)nc3c(-c4ccccc4)cnn23)cc1
-18%	COCc1cc(CN2CCN(C)CC2)c(O)c2ncccc12
-22%	CC(C)(C)C(=O)NC(=S)Nc1sc2c(c1C#N)CCCCC2
-11%	O=C(c1cc2sccc2n1Cc1ccccc1)N1CCc2ccccc21
?	COc1cccc2c(=O)c3c(cnn3C)n(C)c12
-18%	Cc1cc(C)n2nc(SCC(=O)N(C)Cc3ccccc3)nc2n1
-3%	CC(C)=CCn1cnc2c1c(=O)n(C)c(=O)n2C
-11%	O=c1[nH]c2ccccc2nc1N1CCOCC1
-6%	C=CCc1ccccc1OCC(=O)OCCNC(=O)c1cccnc1
-8%	CC(C)(CN)SCc1ccccc1
-20%	Cc1cccc(C)c1Nc1nnc(SCC(=O)c2ccc(Br)s2)s1
-16%	CCN(CC)c1ccc(NC(=O)c2ccco2)cc1
?	CCC1(C)Cc2c(sc3nc(NN)n(C)c(=O)c23)CO1 (centres undefined)
-11%	CC1CN(C(=O)c2scc3c2OCCO3)CC(C)O1 (centres undefined)
-10%	Cc1ccccc1OCc1nnc(SCc2cc(=O)[nH]c3ccccc23)n1-c1ccccc1

Three compounds from above, arranged by molecular weight, smallest number first:
HPGD inh	canonical_smiles
-8%	CC(C)(CN)SCc1ccccc1
-20%	Cc1cccc(C)c1Nc1nnc(SCC(=O)c2ccc(Br)s2)s1
-10%	Cc1ccccc1OCc1nnc(SCc2cc(=O)[nH]c3ccccc23)n1-c1ccccc1

Following part
HPGD inh	canonical_smiles
-13%	CCCn1c(SCC(=O)NCC2CCCO2)nc2c1c(=O)n(C)c(=O)n2C (centres undefined)
-18%	NC(=O)C1CCN(c2nc(C3CC3)nc3c2nnn3Cc2ccccc2Cl)CC1
0%	Cc1ccccc1C(=O)N1CCC(C(=O)Nc2ccc3c(c2)OCO3)CC1
-8%	Cn1nnnc1NCc1c(F)cccc1Cl
-10%	COc1ccc(S(=O)(=O)NCc2csc(C)n2)cc1
-9%	O=C(N/N=C/c1cn(-c2ccccc2)nc1-c1ccc(F)cc1)c1ccc2c(c1)OCO2
-15%	CCOc1ccc(OCCOc2ncnc3ccccc23)cc1
-16%	Nc1cccnc1Sc1cc(Cl)c(Cl)cc1Cl
-9%	COc1ccc(O[C@H]2C=C[C@@H](c3ccccc3)O[C@@H]2CO/N=C/C[C@@H]2C=C[C@H](OC(C)=O)[C@@H](COC(C)=O)O2)cc1
0%	CC1=C(C(=O)NCc2ccccc2)C(c2ccc(C)o2)n2ncnc2N1 (centres undefined)
-23%	Nc1ccc(O)cc1C(=O)OCC(=O)c1ccc(C2CCCCC2)cc1
-27%	CCc1nnc(NC(=O)c2sc3nc4c(cc3c2N)CCCCCC4)s1
-10%	O=S(=O)(NC1=NCCC1)c1cccc(NS(=O)(=O)c2ccc(OC(F)(F)F)cc2)c1
?	Cc1ccc2cc3c(NC(=O)C4CCCO4)nn(CC(C)C)c3nc2c1 (centres undefined)
-13%	COCCCn1c(=O)/c(=C\c2ccccc2OC(F)F)s/c1=C(/C#N)C(=O)NC(C)C
-8%	COc1cc(NC(=O)c2ccccc2Cl)c(OC)cc1NC(=O)CN1CCOCC1
1%	COc1cc(CNC2CCCC2)cc(OC)c1
-6%	CC(=O)Nc1ccc(NC(=O)CCCCCN2C(=O)c3ccccc3C2=O)cc1
-1%	Cc1ccc(Sc2ccncc2S(N)(=O)=O)cc1
-9%	COc1ccc(-c2ccc(=O)n(CC(=O)NCc3ccco3)n2)cc1
?	COc1ccc2c(c1)c(=O)oc1cc(OCC(=O)N3CCCC(C)C3)ccc12 (centres undefined)
?	O=C(Nc1ccc2oc(-c3ccccc3)nc2c1)c1ccco1
-5%	COC(=O)CCC(=O)Nc1ccccc1C(N)=O
?	CCOC(=O)c1nn(-c2ccc(C)cc2)c2nc(Nc3ccccc3)cc(=O)n12
-13%	N/C(=N\OC(=O)C12CC3CC(CC(C3)C1)C2)c1cccnc1
5%	Cc1cccc(CN2CCN(C(=O)c3ccccc3F)CC2)c1
-6%	CCN1C(=O)/C(=C\N2CCN(c3ccc(F)cc3)CC2)SC1=S
-8%	O=C(Nc1ccc(C(F)(F)F)cc1)C1(c2ccccc2)CC1
-15%	Cn1c(N)c(C(=O)c2cc(-c3ccccc3)nc3ccccc23)c(=O)n(C)c1=O
-8%	Cc1nn(Cc2ccccc2)c(C)c1NC(=O)c1cc(-c2cccs2)on1
-8%	c1ccc2c(c1)[nH]c1c(N3CCCC3)ncnc12
-3%	CC1CCN(CCCNC(=O)c2ccc(CSCc3cccc(Cl)c3)o2)CC1
-5%	O/N=C(\c1ccc(Cl)cc1)c1ncc(C(F)(F)F)cc1Cl
?	CSc1nnc(-c2ccccc2)o1
-10%	COc1ccc(-c2nnc(NC(=O)c3ccc(S(=O)(=O)N4COCC4(C)C)cc3)o2)cc1
-17%	CCc1ccc(OCC(=O)O/N=C(\N)Cc2ccc([N+](=O)[O-])cc2)cc1
-6%	CC(=O)c1cc(C#N)c(SCC(=O)O)nc1C
-18%	CCc1nnc(NS(=O)(=O)c2ccc(NC(=S)NC(=O)c3ccc(F)cc3)cc2)s1
-30%	CC(C)c1onc(C(=O)N(C)Cc2ccccc2)c1[N+](=O)[O-]
-10%	CCCn1c(SCC(=O)Nc2nc(-c3ccc(OC)cc3)cs2)nc2c1c(=O)n(C)c(=O)n2C
-6%	Cc1nn(C(=O)c2cccs2)c(C)c1CN1C(=O)c2ccccc2C1=O
-20%	S=C(NCc1ccccc1)NCc1ccc(CNC(=S)NCc2ccccc2)cc1
-3%	O=C1C2CCCCC2C(=O)N1c1cccc(OS(=O)(=O)c2ccccc2)c1 (centres undefined)
-2%	Clc1cc(Cl)cc(C2=N[C@@H](Cc3ccccc3)CO2)c1
-5%	CCNc1nc(SCC(=O)OC)nc(N2CCOCC2)n1
-4%	Cn1c(SCC(=O)NC(=O)NCc2ccco2)nnc1C(F)(F)F
-16%	O=C(c1cc(-c2ccccn2)nc2c(Cl)cccc12)N1CCN(S(=O)(=O)c2ccccc2)CC1
-3%	O=C(C1CCCN1S(=O)(=O)c1ccc(Cl)c(Cl)c1)N1CCCCC1 (centres undefined)
1%	CS(=O)(=O)N(CC(=O)NCCSCc1cccc(Cl)c1)c1ccc2c(c1)OCO2
-5%	COc1ccc(S(=O)(=O)N(CC(=O)NCC2CCCO2)c2ccccc2)cc1OC (centres undefined)
0%	Cc1cc2c(N=NC(=O)CCc3ccccc3)c(O)[nH]c2cc1Br
?	CCn1c(SCC(=O)N/N=C/c2ccc(C)o2)nnc1-c1ccccc1
20µM*	Cc1cc(C2C(C#N)=C(N)SC(N)=C2C#N)c(C)s1
-1%	O=C(NCCCN=C1NS(=O)(=O)c2ccccc21)c1ccncc1
-4%	CCOc1ccc(/C(O)=C2/C(=O)C(=O)N(CC3CCCO3)C2c2ccco2)cc1 (centres undefined)
-27%	O=C(Nc1nc2nccc(-c3ccccc3)n2n1)c1ccc(F)cc1

These rows are one share of the data; the hit share may differ from the screen's.
